# E coli growth = blocks Escherichia coli growth. 330,000 tested, 0.21% active. OD600, 23 h; active compounds read low. OD600 absorbance (test concentration not listed);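 active = OD600 absorbance below the run mean of sample wells minus 3.6 SD, in any replicate, cut at about 0.56 in these data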;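 note: stock transfer was 300 nL into about 60 µL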
# Ecoli rRNA inh = selective bacterial rRNA inhibition in E. coli; E. coli WT GFP vs humanized-ribosome RFP mutants, fluorescence, 24 h; active compounds read low; DMSO median 0, no signal -100; GFP signal change (wild-type ribosome), % (test concentration not listed); 350,000 tested, 1.6% active; AID 720706;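 active = significant combined selectivity score with lowered wild-type GFP, culture density cut under 30%, mutant RFP and density less affected; inactive = any of these conditions unmet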; note: one replicate is shown; some compounds called inactive have numbers as strong as hits
# Beta2AR agonist = human beta-2 adrenergic receptor agonism by FAP. P07550. Am2.2-beta2AR cells, FAP receptor internalization, flow cytometry; reference of the scale not given here. response, % (no concentration beside the values). 340,000 tested, 0.43% active;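 active = response above a set limit, near 3 SD of response in nonfluorescent compounds, cut at about 42% in these data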;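 note: stock transfer was 100 nL into about 11 µL; a reference agonist was the positive control; negative values mostly stem from fluorescent compounds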
# HNF4A DNA FP = change in binding of human HNF4 alpha to DNA; activity change, % at 10 µM; P41235; 360,000 tested, 0.3% active; HNF4a-FITC DNA binding, fluorescence polarization, 1 h; AID 1224865; in the data active = activity change above about 30%, passing the limit was not always enough;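 note: controls were the assay level and a saturating level of protein; the project sought stronger binding though the title names inhibitors; some compounds called inactive have numbers as strong as hits; positive values seem to mean higher polarization but the record does not say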
# Target sequence (P41235 whole entry, looked up): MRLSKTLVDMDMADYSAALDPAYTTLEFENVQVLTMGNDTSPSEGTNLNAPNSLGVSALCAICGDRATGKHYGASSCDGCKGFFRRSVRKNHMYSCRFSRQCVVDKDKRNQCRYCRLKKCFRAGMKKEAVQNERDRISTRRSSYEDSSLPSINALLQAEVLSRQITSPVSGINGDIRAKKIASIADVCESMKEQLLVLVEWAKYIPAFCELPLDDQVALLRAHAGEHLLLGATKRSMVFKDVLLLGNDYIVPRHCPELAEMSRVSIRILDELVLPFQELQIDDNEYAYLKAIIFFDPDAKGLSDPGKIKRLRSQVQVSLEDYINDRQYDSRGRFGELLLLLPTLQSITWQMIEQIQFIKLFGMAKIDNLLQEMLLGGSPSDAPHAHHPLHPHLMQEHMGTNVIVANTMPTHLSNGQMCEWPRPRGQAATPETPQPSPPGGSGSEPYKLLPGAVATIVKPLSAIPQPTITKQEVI
# ALR inh = blocks human ALR sulfhydryl oxidase activity; purified ALR, DTT oxidation, H2O2 HRP-luminol luminescence; inhibition, % (concentration not given with the values); 290,000 tested, 3.8% active;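 active = mean and each replicate at 75% or more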;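 note: stock transfer was 7.5 nL into about 7.5 µL; 0% = neutral wells and 100% = wells with inactivated enzyme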
# Target sequence (P55789 whole entry, looked up): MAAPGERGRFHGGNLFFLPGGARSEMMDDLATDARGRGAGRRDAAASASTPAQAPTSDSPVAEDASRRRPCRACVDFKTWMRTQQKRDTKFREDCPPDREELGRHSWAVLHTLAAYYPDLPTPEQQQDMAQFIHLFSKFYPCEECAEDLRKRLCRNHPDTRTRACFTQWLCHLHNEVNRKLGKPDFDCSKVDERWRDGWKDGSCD
# UCH37 DUB inh = blocks the human deubiquitinase UCH37. 330,000 tested, 0.33% active. purified proteasome/UCH37, Ub-AMC cleavage fluorescence. AID 588478. Q9Y5K5. inhibition, % (concentration not given with the values);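 active = mean of two replicates above 20%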;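 note: 0% = compound-free wells with enzyme and 100% = wells lacking proteasome; stock transfer was 100 nL into about 20 µL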
#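 Test system – human UCH37 enzyme supplied as purified proteasome complex · Incubation – 30 min preincubation with enzyme, 25 min cleavage at room temperature · Detection – AMC fluorescence from Ub-AMC cleavage, excitation 355 nm, emission 460 nm · Benchmarks – no-proteasome wells (full inhibition) and compound-free wells (no inhibition)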
# FGF22 binding = binders of recombinant human FGF22 by thermal shift | Q9HCT0 | SYPRO orange fluorescence; percent of sucrose octasulfate shift, DMSO zero | calls only at 9.99 µM | 340,000 tested, 1.5% active | AID 651658;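 active = melting point raised past a set limit in the mean and every replicate; three in four hits are not shown here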
# Target sequence (Q9HCT0 whole entry, looked up): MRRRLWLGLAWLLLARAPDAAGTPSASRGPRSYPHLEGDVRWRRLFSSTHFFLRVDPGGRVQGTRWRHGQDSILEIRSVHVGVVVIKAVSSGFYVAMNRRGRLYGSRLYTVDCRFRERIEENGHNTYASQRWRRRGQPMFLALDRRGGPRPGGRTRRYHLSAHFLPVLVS
# Ecoli rRNA inh OD600 = further read-out of Ecoli rRNA inh, marked with its call; OD600 change, %; measured here: OD600 growth;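 optical density of the mix in the first replicate; 0 = DMSO median and -100 = no signal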
# Ecoli rRNA inh RFP = further read-out of Ecoli rRNA inh, marked with its call; RFP signal change, %; measured here: RFP humanized mutant strains;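 first replicate; 0 = DMSO median and -100 = no signal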
# Active calls of the source: *; i = inactive; . = not tested or not shown. Only part of the results is shown; count on the stated rates, not on these rows.
E coli growth	Ecoli rRNA inh	Ecoli rRNA inh OD600	Ecoli rRNA inh RFP	Beta2AR agonist	HNF4A DNA FP	mol	ALR inh	UCH37 DUB inh	FGF22 binding
.	.	.	.	9	2.6	COc1cc(/C=N\NC(=O)CN2CCOCC2)ccc1OCC(=O)Nc1ccc(C)c(C)c1	-1	.	.
0.77	.	.	.	-2	-1.1	O=C(CCN1C(=O)C2C3C=CC(C3)C2C1=O)Nc1ccccc1F (stereo unspecified)	.	5.1	.
0.69	-22	-20	-0.4	-10	-0.5	COc1ccc(N(C(C)C(=O)N2CCC(Cc3ccccc3)CC2)S(C)(=O)=O)cc1 (stereo unspecified)	.	4.6	i
0.63	-9	-23	0.0	14	0.6	O=C(Nc1cccc(-c2ccc(N3CCCCC3)nn2)c1)c1ccco1	.	1.4	i
0.68	.	.	.	12	-1.3	COC(=O)CCC(=O)c1oc2ccc(Br)cc2c1N	0	-17	.
0.73	.	.	.	-9	3.6	CCCCN(CC)CCNS(=O)(=O)c1ccc2c(c1)oc(=O)n2C	-6	0.2	.
.	-18	-19	-2.6	-9	1.7	COc1ccc(OC)c(C2C=C(C34CC5CC(CC(C5)C3)C4)NC(=S)N2)c1 (stereo unspecified)	-3	.	.
0.64	5	-10	22	-11	4.1	CCCn1c(CCNc2nc(-c3ccc(OC)cc3)cs2)nc2ccccc21	13	4.7	i
.	10	2	1.9	-1	-4.0	O=C(NCCCn1ccnc1)C(=O)NC1CCCCC1	2	.	i
0.74	.	.	.	-17	-2.7	COc1ccc(CN(C2CCCC2)S(=O)(=O)c2ccc(-n3cnnn3)cc2)cc1	-1	1.8	.
0.65	.	.	.	-2	-9.2	Cn1c(=O)c2c(nc(SCc3nn[nH]n3)n2Cc2ccccc2F)n(C)c1=O	.	.	.
0.69	-2	-2	0.8	11	0.6	CC(Sc1nnc(C2CC2)n1C1CC1)C(=O)NC1(C#N)CCCCC1 (stereo unspecified)	-9	1.5	i
0.67	-9	-12	2.2	6	-0.3	CCOC(=O)N1CCN(CC(=O)N2c3ccccc3Sc3ccccc32)CC1	.	3.2	i
.	12	7	2.4	2	-3.3	COc1ccccc1OCC(=O)Nc1cc(S(=O)(=O)N2CCCCC2)ccc1N1CCCCC1	-7	.	i
0.69	.	.	.	-24	0.2	N#CC1=C(N)Nc2nc3ccccc3n2C1c1ccc(Cl)cc1 (stereo unspecified)	-2	-6.2	.
0.71	6	1	-8.1	-4	1.7	Cc1ccc(N(Cc2cc3ccccc3[nH]c2=O)C(=O)c2cccs2)cc1C	.	-0.8	i
0.69	-4	-1	2.1	-8	5.8	COc1ccc(C(=O)NCC(=O)OCCCOC(=O)CNC(=O)c2ccc(OC)c(OC)c2)cc1OC	-8	1.3	i
0.73	.	.	.	-3	-2.6	CS(=O)(=O)c1ccc(Cl)c(NC(=O)C2CC(=O)N(Cc3ccccc3)C2)c1 (stereo unspecified)	.	2.6	.
0.69	.	.	.	-6	-0.3	Cc1ccc(CNC(=O)CSc2nc3n[nH]c(C)c3c(=N)n2-c2cccc(C)c2)cc1	-8	-35	.
0.73	3	0	-3.6	4	1.3	CC(C)Oc1cccc(C(=O)C2CCCN(Cc3cccn3-c3cccnc3)C2)c1 (stereo unspecified)	.	0.6	i
.	.	.	.	-9	-1.8	Cc1ccc(/C=N/NC(=O)CCCOc2ccc(Cl)cc2Cl)cc1	4	.	.
0.67	2	3	-0.6	-1	0.5	CN1CCN(c2ccc(CNS(=O)(=O)Cc3cccc(C(F)(F)F)c3)cc2)CC1	-5	6.1	i
0.66	-12	-5	3.4	7	1.6	C=C1CCC[C@]2(C)C[C@H]3OC(=O)C(CN(Cc4ccc(OC)c(OC)c4)CC(C)O)[C@H]3CC12 (stereo partly specified)	-2	2.7	i
0.65	2	5	0.7	3	1.4	COc1ccc(N2CCN(C(=O)c3cc(C)oc3C)CC2)cc1	60	0.4	i
0.71	6	8	3.8	39	0.8	Cn1c(CCc2ccc(N)cc2)nc2ccccc21	31	-2.4	i

# 5 records picked at random from those above:
E coli growth	Ecoli rRNA inh	Ecoli rRNA inh OD600	Ecoli rRNA inh RFP	Beta2AR agonist	HNF4A DNA FP	mol	ALR inh	UCH37 DUB inh	FGF22 binding
0.66	-12	-5	3.4	7	1.6	C=C1CCC[C@]2(C)C[C@H]3OC(=O)C(CN(Cc4ccc(OC)c(OC)c4)CC(C)O)[C@H]3CC12 (stereo partly specified)	-2	2.7	i
0.74	.	.	.	-17	-2.7	COc1ccc(CN(C2CCCC2)S(=O)(=O)c2ccc(-n3cnnn3)cc2)cc1	-1	1.8	.
0.73	.	.	.	-3	-2.6	CS(=O)(=O)c1ccc(Cl)c(NC(=O)C2CC(=O)N(Cc3ccccc3)C2)c1 (stereo unspecified)	.	2.6	.
0.73	.	.	.	-9	3.6	CCCCN(CC)CCNS(=O)(=O)c1ccc2c(c1)oc(=O)n2C	-6	0.2	.
0.69	-22	-20	-0.4	-10	-0.5	COc1ccc(N(C(C)C(=O)N2CCC(Cc3ccccc3)CC2)S(C)(=O)=O)cc1 (stereo unspecified)	.	4.6	i

# Later entries:
E coli growth	Ecoli rRNA inh	Ecoli rRNA inh OD600	Ecoli rRNA inh RFP	Beta2AR agonist	HNF4A DNA FP	mol	ALR inh	UCH37 DUB inh	FGF22 binding
0.67	.	.	.	19	3.5	CCCSc1nnc(Sc2nnnn2-c2ccccc2)s1	3	3.4	.
0.6	.	.	.	20	2.6	Cc1cc(Cl)c(OCCCNCc2ccccc2)c(Br)c1	-50	4.5	.
0.7	4	7	-2.2	-6	1.5	Cc1cc(C)c2cc(C#N)c(SCC(=O)Nc3cc(C)on3)nc2c1	-12	-3.1	i
0.62	.	.	.	3	2.4	COCCn1c(SCC(=O)Nc2nnc(C)s2)nnc1-c1cc2ccccc2cc1O	27	-2.8	.
0.79	0	2	-4.8	2	-0.1	CCCCOC(=O)C1C2C=CC3(CN(CCc4ccccc4)C(=O)C13)O2 (stereo unspecified)	0	0.2	i
0.73	.	.	.	9	-0.5	Cc1ccc(NC(=O)c2cccc3c2-c2ccccc2C3=O)cc1C	.	2.2	.
0.72	.	.	.	3	-1.1	Cc1ccccc1N1Cc2ccccc2C1	-6	1.7	i
0.66	4	7	-0.3	-1	1.0	O=S(=O)(c1ccc(Cl)cc1)N1CCN(Cc2cccnc2)CC1	-4	0.2	i
0.67	1	5	-1.1	4	1.4	CCOC(=O)c1cc(OC(=O)c2ccccc2OC)n(-c2ccccc2)n1	61	2.2	.
0.67	-10	1	-0.4	1	-1.8	O=S(=O)(NCC(c1cccnc1)N1CCN(c2ccc(F)cc2)CC1)c1ccccc1 (stereo unspecified)	71	3.6	i
0.69	6	7	1.4	-2	4.9	Clc1ccc(CNCCCSc2ncccn2)cc1	.	5.1	i
0.71	10	-2	1.1	-2	0.5	CCN(CC)C(=O)[C@H]1CC(CC(=O)NCc2ccco2)C(=O)N2CCc3c([nH]c4ccc(OC)cc34)[C@]12C (stereo partly specified)	.	2.5	i
0.66	2	7	-2.1	-10	-1.2	CCCC(=O)C1=C(O)C(C(=O)OC)C(C)(C)CC1=NCc1ccccc1 (stereo unspecified)	.	5.8	i
0.67	-18	-18	-0.2	-15	1.4	O=C1CCC(C(=O)Nc2cccc(Oc3ccccc3)c2)=NN1	-22	5.4	.
0.62	-58	-82	-25	5	0.1	CC(NC(=S)Nc1ccc(OC(F)F)cc1)c1ccc(F)cc1 (stereo unspecified)	.	-1.5	i
0.72	.	.	.	-8	-0.5	O=C(NCc1ccc2c(c1)OCO2)c1cccc(S(=O)(=O)N2CCOCC2)c1	-20	3.4	.
0.77	.	.	.	17	2.6	O=C(Oc1ccc(N(Cc2cccs2)C2=NS(=O)(=O)c3ccccc32)cc1)c1ccccc1F	-1	-4.6	.
.	7	8	-0.3	1	-5.7	C[C@@H]1CCC[C@]2(O[C@H](CCO)C[C@@H](O)[C@@H]2O)O1	1	-0.1	i
0.68	.	.	.	7	0.4	Cc1cccc(N2CCN(CC(=O)Nc3ccccc3[N+](=O)[O-])CC2)c1C	-4	2.6	.
0.72	-44	-56	-8.9	-7	-3.6	CCCc1c(OCCCCc2nn[nH]n2)ccc(C(C)=O)c1O	-2	1.1	i
0.68	17	17	4.3	5	-0.8	Cc1ccccc1NC1=NC2(CCCC2)N=C(N)N1	-2	3.8	i
.	.	.	.	-4	3.7	Cc1cc(/C(=N/O)C(C)(C)NO)ccc1Cl	-7	.	.
0.67	.	.	.	-11	-0.5	CCN1N=C(c2cc(Cl)sc2Cl)CSC1=O	.	1.3	.
.	-8	-14	-2.4	7	-2.7	CC(C)(C)OC(=O)N1CCCC(C(=O)Nc2cccc(C(=O)NCCCCc3ccccc3)c2)C1 (stereo unspecified)	.	.	i
0.67	14	16	3.8	2	-0.6	CCOC(=O)c1ccc(NC(=O)Nc2ncccc2C)cc1	.	0.5	i
0.68	.	.	.	-8	-2.8	COc1ccc2c(=O)c3c(=O)n(Cc4ccco4)c(-c4cc(OC)c(OC)c(OC)c4)nc3oc2c1	-2	2.9	.
0.67	7	2	-1.4	-5	2.4	NC(=O)CCC(NC(=O)c1ccc(Cl)cc1)C(=O)NCCc1ccc2c(c1)OCCO2 (stereo unspecified)	.	2.9	.
0.7	-6	-21	19	5	3.4	O=C(O)c1cc(C(F)(F)F)nc2c(C(F)(F)F)cccc12	-5	2.6	i
0.71	.	.	.	8	-1.4	O=S1(=O)CC(O)C(NCc2cccnc2)C1 (stereo unspecified)	-2	2.8	.
0.72	.	.	.	-1	-0.1	CCc1ccc(OCC(=O)Nc2ccc(S(=O)(=O)N3CCCC3)cc2)c(Br)c1	-26	-1.9	.
.	-15	-37	-3.7	.	3.2	CC(C)(C)c1cc2nc(NCCOc3ccccc3)ccn2n1	.	.	i
.	.	.	.	4	-2.5	CCSC(C)CC1C/C(=N/O)c2c(C)noc2C1 (stereo unspecified)	-11	.	.
0.66	9	10	0.1	-4	1.5	O=C(NN=Cc1ccc(F)cc1)C1CC1	.	2.3	i
0.69	1	-3	1.4	5	4.4	O=C(Nc1cccc(S(=O)(=O)N2CCCCC2)c1)C1CC1	-12	-1.3	i
0.7	.	.	.	-4	0.0	CN1C(=O)C(O)(CC(=O)c2cccnc2)c2ccccc21 (stereo unspecified)	-8	2.4	.
0.73	3	3	-0.6	1	-4.9	CN(C)N=Nc1ccc(S(N)(=O)=O)cc1	-2	4.6	i
0.71	1	-2	-7.1	1	3.9	Cc1ccc(Oc2cc(NN3CCCCC3)c([N+](=O)[O-])cc2[N+](=O)[O-])c(Cl)c1	-4	4.7	i
0.65	.	.	.	12	6.5	Cc1[nH]c(=O)[nH]c(=O)c1NC(=O)c1sc2nc3c(C)cccc3cc2c1N	.	-7.7	.
0.63	.	.	.	-1	-1.9	CCOC(=O)NC1(C(F)(F)F)C(=O)N(Cc2ccccn2)C2=C1C(=O)CC(C)(C)C2 (stereo unspecified)	-26	1.1	.
0.66	-1	1	-5.6	31	-1.5	COC(=O)CNC(=O)C1Cc2ccccc2CN1S(=O)(=O)c1cccs1 (stereo unspecified)	3	3.9	i
0.69	-36	-57	6.5	-18	-1.5	O=C(Cn1c(C(=O)N2CCN(C3CCCC3)CC2)cc2sccc21)c1ccccc1	-17	-0.6	i
0.8	2	1	3.6	2	4.0	CCOc1ccccc1Nc1nc(-c2sc(NC(=O)c3cccc(Cl)c3)nc2C)cs1	-5	3.2	i
0.67	11	1	3.1	-8	0.7	CC(C)N(C(=O)CSc1nnc(C2CC2)n1C1CC1)c1ccccc1	.	2.0	i
0.7	8	13	2.8	16	-3.5	O=C(NCCCCNC(=O)c1ccccc1Cl)c1ccccc1Cl	0	3.1	i
0.71	18	12	0.4	1	-2.5	CC(=O)Oc1ccc2c(C)cc(=O)[nH]c2c1	-64	-109	.

# Bioassay records (PubChem BioAssay)
